MT1-MMP act inh = MT1-MMP (human) activation inhibition. P50281. HT1080 RFP-PRO-GFP cells, GFP/RFP ratio fluorescence, overnight; percent of plate control window, DMSO zero. GFP/RFP ratio change, % at 20 µM. 360,000 tested, 0.061% active;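 active = GFP/RFP ratio change of at least 30% with cell ATP level not reduced by more than half and red fluorescence within 50% of control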; note: strong numbers were not always called active
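Assay system: HT1080 RFP-PRO-GFP cells. Benchmarks: DMSO vehicle wells and RFP-L50D-GFP reporter cell wells. Times: overnight cell settling, then overnight compound exposure, 37 °C, 5% CO2. Compound: 20 µM single dose, 1% DMSO. Read-out basis: GFP/RFP fluorescence ratio.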
CSC inhib = blocks cancer stem cells; inhibition, % at 7.5 µM; cancer stem cell-like cells viability, luminescence; 300,000 tested, 1.1% active;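 active = mean at 75% or more and at least half the replicates too; tested in HMLE shEcad cells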;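 note: 0% = median of negative and 100% = median of positive control wells; the first replicate is given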
PABP FP inh = PABP-poly(A) binding inhibition | P11940 | PABP-poly(A) RNA binding, fluorescence polarization | inhibition, % at 35 µM | 290,000 tested, 1% active;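 active = 50% or more with normal probe brightness, or confirmed in later tests; about a fifth of its hits are not listed in these tables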;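 note: calls also rest on retests at 20 µM and on dose response follow-up; controls were probe without protein and protein plus probe with vehicle; some compounds called inactive have numbers as strong as hits; many hits fall short of the cut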
Yeast UUG start = alters start codon recognition fidelity in yeast; activity score, % at 18.7 µM; 350,000 tested, 0.13% active; S. cerevisiae UUG-firefly luciferase reporter, luminescence/redox ratio;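 active = replicate mean at a twofold rise or more, about +100% in these data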;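 note: firefly luciferase made from a UUG start codon reports start codon fidelity; reporter light over untreated wells divided by growth signal over untreated wells; some hits fall short of that in this replicate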
Env fusion inh = blocks HIV Env-driven cell-cell fusion. HeLa-JRFL Env/CEM21 cell fusion, luciferase. inhibition, % at 12.3 µM. 360,000 tested, 1.1% active. AID 651610;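 active = mean replicate inhibition score of at least 50 and every replicate individually at or above 50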;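 note: 0% = plate neutral controls and 100% = maraviroc near 300 nM; one replicate is shown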
eIF4H FP inh = inhibitors of RNA binding by human eIF4H; Q15056; eIF4H fluorescence polarization binding assay; inhibition, % at 35 µM; 290,000 tested, 0.94% active;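 active = 50% or more with normal probe brightness, or confirmed in later tests; about a fifth of its hits are not listed in these tables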;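 note: calls also rest on retests at 20 µM and on dose response follow-up; 0% = protein and probe with vehicle and 100% = probe without protein; strong numbers were not always called active; many hits fall short of the cut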
Rce1 inh = inhibitors of yeast Ras-converting enzyme. calls only. yeast membranes, quenched prenylated peptide cleavage fluorescence. 290,000 tested, 0.27% active. Q03530;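 active = fall in fluorescence gain of 50% or more versus controls, with final raw signal at or below 3038400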;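 note: plate controls were neutral control wells for no effect and wells lacking membranes for full effect; tested at 10 µM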
Target sequence (Q03530 whole entry, looked up): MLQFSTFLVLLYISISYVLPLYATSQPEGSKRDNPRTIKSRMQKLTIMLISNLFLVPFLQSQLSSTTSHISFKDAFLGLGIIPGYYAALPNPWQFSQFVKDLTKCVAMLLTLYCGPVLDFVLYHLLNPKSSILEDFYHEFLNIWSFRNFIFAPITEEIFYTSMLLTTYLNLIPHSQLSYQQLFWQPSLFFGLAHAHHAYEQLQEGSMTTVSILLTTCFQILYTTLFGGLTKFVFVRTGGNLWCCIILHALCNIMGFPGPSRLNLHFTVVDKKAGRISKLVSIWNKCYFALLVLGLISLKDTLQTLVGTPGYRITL
MT1-MMP act inh RFP = second read-out of MT1-MMP act inh, no call of its own (marks repeat the call); RFP signal change, %; measured here: RFP expression control read;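 0 = vehicle wells; hits needed this value within 50% of zero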
Starred values were filed as active, the others as inactive; i = inactive; · = not tested or not shown.

SMILES	MT1-MMP act inh	MT1-MMP act inh RFP	CSC inhib	PABP FP inh	Yeast UUG start	Env fusion inh	eIF4H FP inh	Rce1 inh
CCCCCC(=O)NC(=S)Nc1cccc(C(C)=O)c1	1	-2	-2	3	-22	-1	1	·
CC1OC(Oc2c(-c3cc(O)c(O)c(O)c3)oc3cc(O)cc(O)c3c2=O)C(O)C(O)C1O (centres undefined)	4	8	·	23	-23	·	37	i
CC(=O)Nc1cccc(N(C)S(C)(=O)=O)c1	4	3	-1	8	-21	-31	3	i
O=[N+]([O-])c1ncn(Cc2c(Cl)cccc2Cl)n1	0	-2	·	-9	·	-2	-4	i
O=S(=O)(NCc1cccnc1)c1cccc2cccnc12	4	0	1	4	-8	·	1	i
O=C(O)CC1(CC(=O)NCc2cccc(Cl)c2)CCCCC1	-4	-2	·	7	-9	-7	10	i
Clc1ccc(CSc2nnc(-c3c[nH]c4ccccc34)o2)cc1	0	-4	26	8	-11	·	1	i
O=C(N/C(=C\c1cccc([N+](=O)[O-])c1)C(=O)N1CCOCC1)c1ccco1	1	-3	·	2	-9	-4	-1	i
CCCCc1ccc(NC(=S)N2CCN(c3ncccn3)CC2)cc1	2	-1	-9	-11	-33	-18	8	i
CC(C)c1cc(C(N)=O)c(NC(=O)c2cccc(COc3ccc(Br)cc3)c2)s1	2	-7	47	0	-20	-6	-4	i
Cc1ccccc1NC(=S)N(CCCN1CCOCC1)Cc1cccs1	-1	4	-2	-7	·	10	-3	i
CCOC(=O)C1=CCN(S(C)(=O)=O)C1c1ccc(C)cc1 (centres undefined)	0	0	·	·	9	18	·	·
O=C(Cn1nc(Cc2cccnc2)c2ccccc2c1=O)N1CCN(c2ccccn2)CC1	0	3	-4	-1	-7	14	-9	·
COc1ccccc1C(=O)ON=C1c2ccccc2-c2ccccc21	-2	-3	4	2	-19	·	6	i
COc1ccc(CCN(C)C(=O)CN2C(=O)NC3(CCCc4ccccc43)C2=O)cc1OC (centres undefined)	-3	-1	-8	·	-5	·	·	i
Nc1nc(SCC(=O)NCCCO)nc2sc3c(c12)CCC3	3	5	2	-6	13	·	-10	i
Cc1ccccc1OCC(=O)Nc1ccc2c(c1)OCCO2	2	0	31	4	·	-86	1	i
CC1CCCN(c2c([N+](=O)[O-])c(=O)oc3ccccc23)C1 (centres undefined)	-9	-3	·	-1	·	-15	-2	i
COc1ccc2nc3c(c(-c4ccccc4)c2c1)CCC3	-4	-4	3	3	-24	-27	-6	i
O=c1[nH]ncc(N2CCCCC2)c1Cl	-4	1	-7	-5	·	-133	4	i

An excerpt from above, limited to Env fusion inh, MT1-MMP act inh and MT1-MMP act inh RFP:
| Structure | Env fusion inh | MT1-MMP act inh | MT1-MMP act inh RFP |
| --- | --- | --- | --- |
| O=C(N/C(=C\c1cccc([N+](=O)[O-])c1)C(=O)N1CCOCC1)c1ccco1 | -4 | 1 | -3 |
| CCCCc1ccc(NC(=S)N2CCN(c3ncccn3)CC2)cc1 | -18 | 2 | -1 |
| CC(C)c1cc(C(N)=O)c(NC(=O)c2cccc(COc3ccc(Br)cc3)c2)s1 | -6 | 2 | -7 |
| Cc1ccccc1NC(=S)N(CCCN1CCOCC1)Cc1cccs1 | 10 | -1 | 4 |
| CCOC(=O)C1=CCN(S(C)(=O)=O)C1c1ccc(C)cc1 (centres undefined) | 18 | 0 | 0 |

Entries of single compounds, looked up by structure:
`CC1OC(Oc2c(-c3cc(O)c(O)c(O)c3)oc3cc(O)cc(O)c3c2=O)C(O)C(O)C1O` (centres undefined) as listed: MT1-MMP act inh = 4; MT1-MMP act inh RFP = 8; CSC inhib = ·; PABP FP inh = 23; Yeast UUG start = -23; Env fusion inh = ·; eIF4H FP inh = 37; Rce1 inh = i
`O=S(=O)(NCc1cccnc1)c1cccc2cccnc12` as listed: MT1-MMP act inh = 4; MT1-MMP act inh RFP = 0; CSC inhib = 1; PABP FP inh = 4; Yeast UUG start = -8; Env fusion inh = ·; eIF4H FP inh = 1; Rce1 inh = i

The listing picks up, starting 3 compounds before the break.
SMILES	MT1-MMP act inh	MT1-MMP act inh RFP	CSC inhib	PABP FP inh	Yeast UUG start	Env fusion inh	eIF4H FP inh	Rce1 inh
CC1CCCN(c2c([N+](=O)[O-])c(=O)oc3ccccc23)C1 (centres undefined)	-9	-3	·	-1	·	-15	-2	i
COc1ccc2nc3c(c(-c4ccccc4)c2c1)CCC3	-4	-4	3	3	-24	-27	-6	i
O=c1[nH]ncc(N2CCCCC2)c1Cl	-4	1	-7	-5	·	-133	4	i
Cc1cc(C)c(S(=O)(=O)N2CCN(c3ccc([N+](=O)[O-])c(-n4nc(C)cc4C)c3)CC2)c(C)c1	-5	-7	2	-3	-14	-78	-2	i
COc1ccc(CNC(=O)C2CCCN2S(=O)(=O)c2ccc(Cl)cc2)cc1 (centres undefined)	-4	-6	4	-4	-9	·	-9	i
CC(C)[C@@H]1CC[C@@H](C)C[C@H]1OC(=O)C[n+]1cc(-c2ccc(Cl)cc2)n2c1CCCCC2	-13	-35	22	1	·	83*	-9	·
C=CCn1c2ccccc2c2n[nH]c(=S)nc21	1	3	·	-8	-9	40	-18	i
COc1ccc(Nc2cc(C(=O)NCCCN3CCOCC3)c3ccccc3n2)cc1OC	4	0	-7	-1	3	-3	2	i
COc1ccc2nc3n(c(=O)c2c1)-c1cc2ccccc2cc1C(=O)NC3Cc1ccccc1 (centres undefined)	-5	-8	·	·	-7	i	·	·
CCCCCn1c(-c2ccco2)nc2nc3ccccc3nc21	-38	6	-4	4	-4	·	45	i
Cc1cccc(-c2nc3c(c(SCC(N)=O)n2)CCCC3)c1	4	-3	·	-1	-22	·	-11	i
CCOC(=O)NN1C(=O)c2ccccc2NC1c1ccc(OC)cc1OC (centres undefined)	-1	1	-20	-3	-12	11	-3	i
CC(C)NC(=O)Cn1c(SCC(=O)NC2CCCC2)nc2ccccc21	0	4	-12	-2	-8	-2	3	i
Cc1ccc(C(C(=O)NC(C)(C)C)N(Cc2ccco2)C(=O)Cn2nnc(-c3cccs3)n2)cc1 (centres undefined)	-12	-10	-23	-5	-8	-33	1	i
CC(Cc1cccs1)NC(=O)Nc1ccccc1 (centres undefined)	-2	-5	1	-2	-12	·	-8	i
COc1ccc(CCNC(=O)CCn2c(SCC#N)nc3ccccc3c2=O)cc1OC	-1	3	-7	-6	-5	-30	-1	i
CCCCCc1cc(=O)oc2c(C(CCN3CCCCC3)c3cc(OC)c(OC)c(OC)c3)c(OC)cc(OC)c12 (centres undefined)	-6	-4	79*	-2	6	-10	-6	i
Cn1c(SCC(=O)Nc2ccc(Cl)cc2)nnc1C1CC1	3	3	8	18	-14	-10	17	i
COc1ccc(OCC(=O)NCc2nc(-c3ccccc3)no2)cc1	0	4	·	·	-20	-1	·	·
CCOC(=O)C(Cc1ccccc1)NC(=O)CCCC(=O)c1ccccc1 (centres undefined)	1	4	0	-1	-3	-1	-4	i
CCC(=O)Nc1ccc(/C=C(\C(C)=O)C(=O)c2ccccc2)cc1	-6	-8	-2	2	·	-23	-2	i
CCN(Cc1nc2ccccc2c(=O)[nH]1)C(=O)COc1ccccc1Cc1ccccc1	-4	-13	·	·	9	8	·	·
C=CCn1c(SCC(=O)c2cc(C)n(CC3CCCO3)c2C)nnc1-c1ccccc1 (centres undefined)	-2	-1	-6	1	5	-7	-2	i
CCN(CC)C(=O)c1ccc(S(=O)(=O)c2ccccc2)cc1	-1	-8	-17	8	-8	6	11	i
CC(=O)N1c2ccccc2CCc2ccc([N+](=O)[O-])cc21	-2	1	-8	-4	0	1	5	i
Cc1nc(C(F)(F)F)c(C(=O)N=CN(C)C)s1	3	3	-16	1	·	3	3	i
CN1CCN(CCC(=O)N2c3ccccc3Sc3ccc(Cl)cc32)CC1	-8	-4	1	0	-13	-29	0	i
O=c1[nH]c(-c2cccs2)nc2ccccc12	-8	-6	6	-5	-19	-82	14	i
COc1ccc(Br)cc1/C=N/Nc1ccccn1	-1	0	-15	-8	-16	-15	-6	i
CC(C)n1c(=S)[nH]c2ccccc2c1=O	-4	-2	-10	9	-23	-35	-8	i
Cc1no[n+]([O-])c1COc1cccc(/C=C2\N=C(c3ccccc3)OC2=O)c1	-4	1	·	-4	·	-18	-3	i
CCOC(=O)C1=C(C)Nc2ccccc2N=C1N	1	2	-8	0	·	-4	-3	i
CCOC(=O)c1c(C)[nH]c(C)c1S(=O)(=O)N(C)CC(=O)NCc1cccc(C)c1	0	1	1	10	4	10	16	i
COc1ccc(CCNC(=O)Cn2nc(C)c3c(C)n(-c4ccccc4)nc3c2=O)c(OC)c1	1	-1	0	10	-27	14	-4	i
CC(C)(C)C(=O)N1CCN(CCN2C(=O)c3cccc4cccc(c34)C2=O)CC1	0	3	-9	-6	9	-19	1	i
O=C(COC(=O)/C=C/c1ccc(Cl)cc1)NCCc1ccccc1	5	5	-11	3	-20	-15	0	i
O=S(=O)(NCC1CCCO1)c1ccc(-c2ccc(Cl)cc2)cc1 (centres undefined)	-2	-11	-3	-3	·	19	4	i
CCc1ccc(NC(=O)/C(C#N)=C\c2ccc(OC)c(C(=O)O)c2)cc1	1	3	8	0	·	-14	-2	i
CCOC(=O)Cc1csc(NS(=O)(=O)c2cc(Cl)ccc2Cl)n1	-2	3	-16	15	-17	11	25	i
O=C(Nc1ccc2oc(-c3cccnc3)nc2c1)c1ccc2c(c1)OCCO2	8	5	20	-60	·	-13	-20	i
Clc1ccc(CN2CCCCCCC2)cc1Cl	6	5	-5	3	-19	-57	3	i
O=C(NCc1ccco1)/C(=C/c1ccc([N+](=O)[O-])cc1)NC(=O)c1ccco1	0	3	-6	5	-13	-9	4	i
O=C(COC(=O)c1ccco1)Nc1nc2c(F)c(F)c(F)cc2s1	-3	1	2	-2	-12	-7	20	·

A portion of the results above:
SMILES	MT1-MMP act inh	MT1-MMP act inh RFP	CSC inhib	PABP FP inh	Yeast UUG start	Env fusion inh	eIF4H FP inh	Rce1 inh
O=S(=O)(NCC1CCCO1)c1ccc(-c2ccc(Cl)cc2)cc1 (centres undefined)	-2	-11	-3	-3	·	19	4	i
CCc1ccc(NC(=O)/C(C#N)=C\c2ccc(OC)c(C(=O)O)c2)cc1	1	3	8	0	·	-14	-2	i

More records:
SMILES	MT1-MMP act inh	MT1-MMP act inh RFP	CSC inhib	PABP FP inh	Yeast UUG start	Env fusion inh	eIF4H FP inh	Rce1 inh
Cc1ccc2c(CC(=O)NCCc3ccc(S(N)(=O)=O)cc3)coc2c1	1	3	-9	-9	-21	-8	8	i
O=C(Cn1c(=O)[nH]c2ccccc2c1=O)Nc1cccnc1	2	2	-1	6	-10	-2	-4	i
NC(=O)C1CCN(C(=O)c2cc3ccccc3cc2O)CC1	0	1	-1	·	-9	63*	·	i
CSCC[C@H](NC(=O)OC(C)(C)C)C(=O)N1CCC(C(=O)N[C@@H](C)C(=O)NC(C)c2ccccc2)CC1 (some centres undefined)	-4	-1	-8	-2	-12	·	-2	·
C=Cc1ccc(C(=O)N2CCCC(CCC(=O)N3CCN(c4ccccn4)CC3)C2)cc1 (centres undefined)	-2	-5	-14	0	-12	·	0	i
CCN(CC)S(=O)(=O)c1cccc(-c2nnc(C(=O)c3ccc(C(F)(F)F)cc3)o2)c1	1	-2	-9	-2	-26	-7	6	i
CCCCOC(=O)c1ccc(NC(=O)C(CCS(C)(=O)=O)NC(C)=O)cc1 (centres undefined)	10	3	3	2	-11	·	-5	i
O=C(Nc1nccs1)C12CC3CC(C1)CC(C(=O)Nc1nccs1)(C3)C2	-2	-10	3	7	-23	·	0	i
Cc1c([N+](=O)[O-])c(C(=O)NC2CCCC2)nn1C	-5	3	·	-6	-7	·	-16	i

Screens as filed in PubChem BioAssay.

Some of the compounds tested; the hit share may differ from the screen's.
